Bioassay records deposited in PubChem BioAssay by National Center for Advancing Translational Sciences (NCATS).
HPGD inh – blocks human HPGD enzyme activity | purified HPGD, NADH fluorescence kinetic, PGE2 substrate | Potency, µM, for inactives: top-dose activity change, negative = inhibition, hits mostly inhibitors | actives 4.3% (n = 150,000) | P15428; active = well fitted inhibition curve with a large enough effect (not every such curve was filed as active); inconclusive = small, poorly fitted or top-dose-only effect, or another doubt; inactive = no such curve, though single readings can be large or run the other way;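 note: top concentration of the series not given in the record; plate controls included wells without enzyme; inactives centre near -10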
Target sequence (P15428 whole entry, looked up): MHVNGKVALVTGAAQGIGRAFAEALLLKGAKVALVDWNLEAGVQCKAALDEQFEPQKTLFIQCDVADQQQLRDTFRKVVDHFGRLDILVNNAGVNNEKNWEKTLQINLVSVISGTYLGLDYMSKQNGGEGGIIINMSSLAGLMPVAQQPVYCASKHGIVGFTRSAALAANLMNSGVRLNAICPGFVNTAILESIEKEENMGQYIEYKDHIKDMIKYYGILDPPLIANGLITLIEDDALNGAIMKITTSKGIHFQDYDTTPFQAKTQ
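20 nM HPGD preincubated 15 min at room temperature with compound in 50 mM Tris-HCl pH 8, 0.01% Tween 20. Started with 1 mM NAD+ and 30 uM prostaglandin E2; NADH fluorescence (360/450 nm) read 5 times over 30-s intervals, last minus first.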
* marks the source's active call; other numbers are inactive results; ? = inconclusive; & = joins results of further samples. % is set by controls: 0 for no effect and ±100 for the full control effect; potency is the fitted concentration of half-maximal effect.

HPGD inh	smiles
?	N#Cc1c(C(F)(F)F)cc(-c2ccc(Cl)cc2)[nH]c1=O
-21%	O=C(COc1ccccc1Cl)NCc1ccco1
-9%	COc1ccc(NC(=O)C2CC(=O)OC2c2ccccc2)cc1 (stereo unspecified)
?	Cc1ccc(C)c(-n2c(-c3ccc4c(c3)OCO4)n[nH]c2=S)c1
-20%	Cc1ccc(-c2nc3ncccn3c2Nc2ccc3c(c2)OCO3)o1
-9%	C[C@H]1C=C2C=C[C@H](C)[C@H](CC[C@@H]3C[C@@H](O)CC(=O)O3)[C@H]2[C@@H](OC(=O)[C@@H](C)CCO)C1
-5%	CCC(=O)NCc1nc2ccccc2n1Cc1ccccc1F
-7%	CC(C)C[C@@H](CC(=O)N[C@@H](CCC(=O)O)CC(=O)O)NC(=O)[C@@H]1CCCC[C@H]1NC(=O)C[C@@H](NC(=O)C[C@H](CO)NC(=O)[C@@H]1CNCC[C@H]1N)C(C)C
-8%	O=C1C2C3C=CC(C3)C2C(=O)N1c1ccccc1OS(=O)(=O)c1ccccc1 (stereo unspecified)
-4%	N#CCC(=N)N1CCN(c2ccccc2Cl)CC1
-11%	COc1ccc(NC(=O)c2cc3n(n2)C(C(F)(F)F)CC(c2ccc4c(c2)OCO4)N3)cc1OC (stereo unspecified)
-11%	Nc1nc(-c2ccc(F)cc2)cc(C(F)(F)F)n1
-19%	COCCCNC(=O)c1ccc2c(=O)n(Cc3ccc4c(c3)OCO4)c(=S)[nH]c2c1
-24%	N#Cc1ccc(N2Cc3ccccc3/C2=N/C(=O)Nc2ccc(Cl)cc2)cc1
-10%	Cn1c(CNc2cccc(Cl)c2)nnc1SCC(=O)OC1CCCCC1
-7%	Cc1noc(C)c1CSCC(=O)N1CCN(c2ccc([N+](=O)[O-])cc2)CC1
?	CC1CCCCN1S(=O)(=O)c1ccc(C(=O)Nc2ccccc2-c2nc3ccccc3s2)cc1 (stereo unspecified)
3%	CCc1ccc(NC(=O)CN2C(=O)CSC2=O)cc1
7%	CN(CC(=O)NCc1ccc(Cl)cc1)S(=O)(=O)c1cccc2cccnc12
-15%	Nc1ccc(Nc2ccncc2[N+](=O)[O-])cc1
-2%	COc1ccc(CC(CC(=O)O)C(=O)Nc2ccc(OC)cc2)cc1 (stereo unspecified)
-1%	CCc1cc(C(=O)O)c(NC(=O)C(c2ccccc2)c2ccccc2)s1
-11%	O=C(O)CCC(=O)OC1CC2CCC1C2 (stereo unspecified)
3%	Cc1c(NC(=O)COC(=O)Cc2ccc(Cl)cc2)c(=O)n(-c2ccccc2)n1C
1%	CC(=O)N[C@H]1[C@@H](O[C@@H](C)C(=O)O)[C@H](O)[C@H](CO)O[C@@H]1O
-6%	Clc1ccccc1C1SCC2Nc3ccccc3CN21 (stereo unspecified)
-9%	Cc1cccc(N(C(=O)Cn2nnc3ccccc32)C(C(=O)NCc2ccco2)c2ccncc2)c1C (stereo unspecified)
?	COCCCN(C(=S)NC(=O)c1ccc(C(C)(C)C)cc1)c1c(N)n(Cc2ccccc2)c(=O)[nH]c1=O
?	O=C1NC(c2ccco2)Nc2sc3c(c21)CCN(Cc1ccccc1)C3 (stereo unspecified)
28µM*	CCOC(=O)c1c(NC(=O)OC)sc(C(=O)N(CC)CC)c1C

A different layout for some results above.
N#Cc1ccc(N2Cc3ccccc3/C2=N/C(=O)Nc2ccc(Cl)cc2)cc1
  HPGD inh: -24%
CCc1ccc(NC(=O)CN2C(=O)CSC2=O)cc1
  HPGD inh: 3%

Continuation:
HPGD inh	smiles
-14%	COc1cc2c(cc1NC(=O)c1cc(-c3ccccn3)nc3ccccc13)oc1ccccc12
-21%	Cc1ccccc1OCCNc1ccc(C(F)(F)F)cc1[N+](=O)[O-]
-7%	Clc1ccc(-c2cc(COc3ccccc3)no2)cc1Cl
-5%	COc1cccc(-c2nc(CS(=O)(=O)CC(=O)NCc3ccc(Cl)cc3)c(C)o2)c1
-10%	Cc1cc(=O)c2ccccc2n1CC(=O)NCc1ccccc1
?	COc1ccc(-c2cc3ccccc3n2CC(O)CN2CCN(CCO)CC2)cc1 (stereo unspecified)
14µM*	COc1ccc(OCC(=O)Sc2ccc(C)cc2)cc1
-24%	Cn1c2ccccc2c2c(C(=O)N3CCN(c4ccccn4)CC3)cn(C3CCCC3)c(=O)c21
?	CCOC(=O)c1ccc(NC(=O)C(C)NS(=O)(=O)c2ccc(OC)cc2)cc1 (stereo unspecified)
-7%	Cc1cc([N+](=O)[O-])ccc1NC(=S)NC(=O)C(c1ccccc1)c1ccccc1
-16%	S=C1NNC2(NN1)C1CC3CC(C1)CC2C3
-11%	CC(=O)NCCOc1cccc2cccnc12
-8%	CCCn1c(SCC(=O)NC(C)(C)C)nnc1C(C)C
-2%	CCOCCO
2%	N#CCCn1ccc(NC(=O)c2ccc(Cl)cc2)n1
3%	Cc1cc(C)n(CC(O)CN(c2ccccc2)S(=O)(=O)c2ccccc2)n1 (stereo unspecified)
18µM*	Cc1sc2nc(SCC(=O)N3CCCC3)[nH]c(=O)c2c1C
16µM*	CCc1nn2cc(C(=O)c3ccccc3O)cnc2c1-c1ccc(F)cc1
-8%	CCN(CC)C(=O)CSc1nnc(-c2ccc(O)cc2)n1CC1CCCO1 (stereo unspecified)
-24%	N#Cc1sc2nc3c(cc2c1N)CCCC3
?	CCC(C)C(=O)Nc1nnc(-c2cccs2)s1 (stereo unspecified)
-12%	COc1ccccc1C(=O)NNC(=O)c1cccc(F)c1
-18%	CCc1ccc(NC(=O)CCn2cccc2)cc1
-17%	CCCCOc1ccc(/C=C/C(=O)Nc2ccc([N+](=O)[O-])cc2C)cc1
-20%	Cc1ccc(-n2c(SCC(=O)N3CCOCC3)nnc2-c2cccnc2)cc1
?	N#CC1=C(N)SC(N)=C(C#N)C1c1cccc(O)c1
?	Cc1oc(-c2ccccc2)cc1C(=O)NC(Cc1c[nH]c2ccccc12)C(=O)O (stereo unspecified)
-14%	N/C(CN1CCCC1=O)=N\OC(=O)c1ccccc1Cl
0%	CCc1ccccc1NC(=O)N1CCC(NC(=O)C(Cc2ccc(OC)c(OC)c2)NC(C)=O)CC1 (stereo unspecified)
-12%	CO[C@@H]1/C=C\O[C@]2(C)Oc3c(C)c(O)c4c(O)c(c(CN5CCN(C)CC5)c(O)c4c3C2=O)NC(=O)/C(C)=C\C=C[C@@H](C)[C@@H](O)[C@H](C)[C@@H](O)C(C)[C@H](OC(C)=O)[C@@H]1C (stereo partly specified)
-6%	Cc1ccc(-c2noc(CNc3ccccc3)n2)cc1
?	COCn1c(-c2ccc(OC)c(OC)c2)nc2ccccc21
-6%	Cc1ccc(NC(=O)NCc2ccc3c(c2)OCO3)cc1
-12%	COc1cc(C2C(C#N)=C(N)Oc3c2oc(CO)cc3=O)ccc1OC(C)C (stereo unspecified)
-2%	CCO/N=C(/C)c1c(O)c(C)c(-c2ccccc2)n(-c2ccccc2)c1=O
-5%	Cc1nn(-c2ccccc2)c(Cl)c1C1C(C#N)=C(N)OC2=C1C(=O)CC(C)(C)C2 (stereo unspecified)
-27%	O=C(OCCN1C(=O)c2cccc3c(N4CCOCC4)ccc(c23)C1=O)c1ccccc1Cl
-10%	Cc1ccc(NC(=O)COC(=O)Cn2c(C)csc2=O)cc1C
-13%	O=C(O)c1csc(Br)c1Br
-9%	C/C(=N\NS(=O)(=O)c1ccc(Br)cc1)c1cccs1
-25%	O=C(Nc1cc(C(F)(F)F)ccc1Cl)C(Sc1cccc[n+]1[O-])c1ccccc1 (stereo unspecified)
-8%	CCOC(=O)C1=C(C)Nc2[nH]c(=O)[nH]c(=O)c2C1c1cccs1 (stereo unspecified)
-17%	CCSc1nnc(NC(=O)c2ccc3c(c2)OCO3)s1
-8%	CCCOc1ccc(Oc2cc(C)nc(SC)n2)nn1
-10%	O=C(CCN1C(=O)/C(=C/c2ccccc2)SC1=S)NNC(=O)c1cccnc1
-7%	O=C(NCCC1=CCCCC1)C1CCN(S(=O)(=O)c2cccc3cccnc23)CC1
-6%	COc1cc(S(=O)(=O)N2CCN(C)CC2)ccc1Cl
-12%	O=C(NCc1ccccc1)c1cccc(S(=O)(=O)NCc2ccccc2)c1
-6%	CC(Oc1ccccc1)C(=O)Nc1ccc(S(=O)(=O)NCC2CCCO2)cc1 (stereo unspecified)
-7%	C=CCCCC
0%	Cc1cccc(NC(=O)CSc2nc(N)c(NC(=O)c3cccs3)c(=O)[nH]2)c1C
-17%	CCOC(=O)c1c(C)[nH]c(C(=O)Cn2nnc(-c3ccccc3Cl)n2)c1C
-12%	COC(=O)c1[nH]c2ccc(C)cc2c1NC(=O)NC1CCCCC1
-6%	COc1ccc(/C=N/NC(=O)c2cc(C34CC5CC(CC(C5)C3)C4)[nH]n2)cc1O
-2%	CCOc1ccccc1-n1c(SCC(=O)N2CCCC2)nnc1-c1ccoc1C
0%	CC1CCN(CCc2nc3cc(NS(=O)(=O)c4ccc(F)cc4)ccc3n2C)CC1
-11%	Nc1ccc(-n2cnc3cc([N+](=O)[O-])ccc32)cc1
?	COC(=O)c1cc(OC)c(OC)cc1NC(=O)c1ccoc1C
-27%	COc1ccc(C(=O)NCC(C)(C)SCc2c(C)cc(C)cc2C)cc1
-3%	Cc1nc(N2CCN(c3ccccc3)CC2)c2c3c(sc2n1)CCC3

Quoted at random: 5 records from the list, in no set order.
HPGD inh	smiles
-21%	Cc1ccccc1OCCNc1ccc(C(F)(F)F)cc1[N+](=O)[O-]
-9%	C/C(=N\NS(=O)(=O)c1ccc(Br)cc1)c1cccs1
-14%	N/C(CN1CCCC1=O)=N\OC(=O)c1ccccc1Cl
-5%	CCC(=O)NCc1nc2ccccc2n1Cc1ccccc1F
-12%	COc1cc(C2C(C#N)=C(N)Oc3c2oc(CO)cc3=O)ccc1OC(C)C (stereo unspecified)

Next part
HPGD inh	smiles
-4%	NC(CC(=O)O)c1ccc(F)cc1 (stereo unspecified)
?	Cc1cc(C)c2c(n1)nn1c(NCCN3CCOCC3)cc(C)nc21
-17%	Cc1cc(Nc2cnc3ccccc3n2)n(-c2ccccc2)n1
-15%	Cc1cc(C(=O)CSc2nnc(-c3ccccc3)n2C)c(C)n1C
-16%	CSc1ccc(CNc2ccccc2)cc1
0.045µM*	O=C(c1ccc(COc2ccccc2Br)cc1)N1CCCCC1
-8%	COc1ccc(C2(C(N)=O)CCCCC2)cc1OC
-3%	COc1ccc(C(=O)NC2(C(F)(F)F)NC(=O)N(CCCc3ccccc3)C2=O)c(OC)c1OC (stereo unspecified)
-8%	COc1ccc(C)cc1NC(=O)c1ccc2c(c1)OCO2
?	O=c1cc(O)c2sc3nc(-c4cccnc4)cc(C(F)(F)F)c3c2[nH]1
-22%	COc1ccc(N2CCN(C(=O)c3cn(C4CCCC4)c(=O)c4c3c3ccccc3n4C)CC2)cc1
1%	CN1CCC(C2(O)c3ccccc3CCc3ccccc32)CC1
-2%	O=C1OCCC1Sc1nnc(-c2ccccc2Cl)n1Cc1ccccc1 (stereo unspecified)
0%	O=S(=O)(NCc1cn2ccsc2n1)c1ccc2c(c1)OCCO2
-5%	O=S(=O)(Cc1cnc(Cl)s1)c1ccccc1
-1%	N#Cc1ccc(OCC(=O)N/N=C2\CCc3ccccc32)cc1
-5%	Cc1csc(SCC(=O)N2CCN(S(=O)(=O)c3ccccc3)CC2)n1
-12%	COc1ccc(CNCc2cc3c(C(C)(C)C)nn(-c4ccccc4)c3[nH]c2=O)cc1
-8%&-14%&-5%&1%&1%	CN1CCN(CC(=O)N2c3ccccc3C(=O)Nc3cccnc32)CC1
-7%	CCOC(=O)c1ccc(NC(=O)CSc2nnc(CNC(=O)c3ccccc3F)o2)cc1
4%	CCC(C)(C(=O)NC1CCCC1)N(Cc1cccs1)C(=O)Cc1cccs1 (stereo unspecified)
?	CCOc1ccc(-c2cc(C(=O)NCC3CCCO3)c3ccccc3n2)cc1 (stereo unspecified)
-6%	Cc1ccc(-n2[nH]c(C)c(C=NC34CN5CN(CN(C5)C3)C4)c2=O)cc1C
?	N#Cc1c(C(F)(F)F)cc(-c2ccco2)nc1SCc1ccccn1
-18%	O=C(Nc1ccc2nsnc2c1)c1cccs1
-27%	O=C1CC(N2CCN(c3ccccn3)CC2)C(=O)N1CC(c1ccccc1)c1ccccc1 (stereo unspecified)
-6%	Cc1ccc(S(=O)(=O)NCC(=O)N(CC(=O)NC2CCCC2)c2ccc3c(c2)OCCO3)cc1
-14%	CCn1cc(C(=O)N(CCCN2CCOCC2)Cc2ccco2)c(=O)c2ccc(C)nc21
-11%	CCS(=O)(=O)N1Cc2ccccc2CC1C(=O)Nc1nc2ccc(C)cc2s1 (stereo unspecified)
35µM*	N=C(N)S/C=C\C(=O)O
-7%	Cc1csc(NC(=O)C2C3C=CC(O3)C2C(=O)O)n1 (stereo unspecified)
-13%	NC(=O)CSc1nnc(-c2cccnc2)n1CCc1ccccc1
-8%	Cc1cc(Cl)c(S(=O)(=O)Nc2ccc3c(c2)OCO3)cc1OCC(N)=O
-10%	Cc1cc(C)c2[nH]c(=O)c(CN(CC3CCCO3)C(=O)c3cnccn3)cc2c1 (stereo unspecified)
-25%	CCOc1ccc(CCNC(=O)CSc2nn(-c3ccc(C)c(Cl)c3)c(=S)s2)cc1OCC
?	CC(C)c1nc(N2CCN(C(=O)c3ccco3)CC2)c2c3c(sc2n1)CCCC3

Taken from above:
Value for CCOc1ccc(CCNC(=O)CSc2nn(-c3ccc(C)c(Cl)c3)c(=S)s2)cc1OCC under HPGD inh: -25%
Value for Cc1csc(NC(=O)C2C3C=CC(O3)C2C(=O)O)n1 (stereo unspecified) under HPGD inh: -7%
Value for NC(=O)CSc1nnc(-c2cccnc2)n1CCc1ccccc1 under HPGD inh: -13%
Value for Cc1cc(C)c2[nH]c(=O)c(CN(CC3CCCO3)C(=O)c3cnccn3)cc2c1 (stereo unspecified) under HPGD inh: -10%
Value for Cc1cc(Cl)c(S(=O)(=O)Nc2ccc3c(c2)OCO3)cc1OCC(N)=O under HPGD inh: -8%

Not all compounds are listed (hit frequency here may not be typical).
